# TSHR ag: TSH receptor (human) agonism. HEK293-CNG-TSHR cells (CNG channel as cAMP sensor), membrane potential dye, cAMP. Potency, µM (titrated, usually from 57.1 µM), for inactives: top-dose activation, actives largely listed as activators. 73,000 tested, 0.48% active. AID 926; active = well fitted activation curve of enough size with the parental cells flat; inconclusive = any curve in the parental cells; inactive = parental cells flat and receptor cells flat or falling; further: potency means the concentration at half of the fitted maximal effect; % of control where 0% means no effect; weak receptor curves with flat parental cells got no call and are not listed
# Target sequence (P16473 whole entry, looked up): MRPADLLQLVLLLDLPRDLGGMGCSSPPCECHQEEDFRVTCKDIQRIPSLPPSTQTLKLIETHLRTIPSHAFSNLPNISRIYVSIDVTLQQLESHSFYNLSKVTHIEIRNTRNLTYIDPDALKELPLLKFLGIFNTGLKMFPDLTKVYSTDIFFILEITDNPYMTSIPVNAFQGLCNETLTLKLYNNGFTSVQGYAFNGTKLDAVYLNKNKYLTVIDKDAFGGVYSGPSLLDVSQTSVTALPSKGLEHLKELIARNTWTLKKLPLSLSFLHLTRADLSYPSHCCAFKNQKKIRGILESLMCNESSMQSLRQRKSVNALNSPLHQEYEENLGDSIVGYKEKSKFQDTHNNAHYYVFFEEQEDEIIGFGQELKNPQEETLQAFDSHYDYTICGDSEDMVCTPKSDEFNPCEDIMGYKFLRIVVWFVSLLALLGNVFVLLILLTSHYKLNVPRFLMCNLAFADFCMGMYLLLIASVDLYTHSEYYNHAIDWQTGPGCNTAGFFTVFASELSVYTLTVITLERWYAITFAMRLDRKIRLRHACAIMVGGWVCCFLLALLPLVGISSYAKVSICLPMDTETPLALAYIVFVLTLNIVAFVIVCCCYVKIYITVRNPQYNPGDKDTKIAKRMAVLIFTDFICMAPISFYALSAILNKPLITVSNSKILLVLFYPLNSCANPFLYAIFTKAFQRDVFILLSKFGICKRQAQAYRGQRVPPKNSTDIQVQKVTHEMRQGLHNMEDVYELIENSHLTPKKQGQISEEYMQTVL
#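 HEK 293 cells stably expressing TSHR and a modified CNG channel, with CNG-only parental cells as counterscreen, were preloaded 60 min at room temperature with membrane potential dye containing 100 uM RO 20-1724. Compound exposure was 30 min, and depolarization was read as fluorescence at 590 nm.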
# Resorufin autofl: compounds fluorescent in resorufin spectral region | AID 588 | max dye-equivalent concentration, M | Compound fluorescence, resorufin region 547/598 nm, buffer; active compounds read high | 59,000 tested, 0.04% active; active = above 10 nM dye equivalent; inconclusive = 1 to 10 nM; inactive = 1 nM or less; a few of its hits are not listed in these tables; further: highest value over a series up to 38 µM
#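 Dye-equivalent concentration values derive from comparing each well's 547/598 nm fluorescence against resorufin standards included on every plate. Incubation was 15 min at room temperature in 100 mM Tris, pH 8.0.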
# A647 fluor: compound fluoresces in the A647 spectral region; Compound fluorescence, A647 channel (570/671 nm), Tris buffer; max dye-equivalent concentration, M; 59,000 tested, under 10 active; AID 592; active means above 1 µM dye equivalent; inconclusive means 0.1 to 1 µM; inactive means 0.1 µM or less;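 further: values scaled relative to a standard on each plate; highest value over a series up to 38 µM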
#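 Each compound's intrinsic fluorescence at 570 nm excitation and 671 nm emission is measured across its concentration series in 100 mM Tris, pH 8.0, after 15 min at room temperature, and reported relative to an A647 curve.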
# A488 autofl: A488 region autofluorescence | 59,000 tested, 0.1% active | max dye equivalency, M | compound autofluorescence, A488 spectral region, dye equivalency; active compounds read high; active = above 10 nM dye equivalent; inconclusive = 1 to 10 nM; inactive = 1 nM or less; about half of its hits are not listed in these tables;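 further: highest value over a series up to 38 µM; compound alone in buffer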
#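 Spectroscopic profiling in the A488 region: compounds in pH 8.0 Tris (100 mM), 15 min RT, CCD imaging with 480 nm excitation and 540 nm emission; responses normalized against A488 dye standards.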
# AID923: qHTS Assay for Allosteric/Competitive Inhibitors of Caspase-1: Spectroscopic Profiling in AFC Spectral Region. compound fluorescence, AFC spectral region (405/520 nm); almost no hit is shown here. Potency, µM (highest dose often 57.5 µM), without a hit: at the highest dose fluorescence increase, hits mostly activators. 75,000 tested, 1.1% active. AID 923, 2007; active means well fitted activation curve with a large enough effect; inconclusive means small, poorly fitted or top-dose-only effect;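 further: potency means the concentration at half of the fitted maximal effect; 0% is about no effect; scaled to a free AFC standard on each plate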
#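 Titrations up to 57 uM read every 20 sec for 3 min (405/520 nm) with 50 nM caspase 1 and 5 uM Ac-WEHD-AFC, pH 7.5 HEPES buffer. Fluorescence-vs-time intercept gave baseline, scaled against on-plate AFC standard.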
# * hit, by the source's call; i = inactive; ? = inconclusive; . = no result given; [ ] = remark or other dose.
SMILES,TSHR ag,Resorufin autofl,A647 fluor,A488 autofl,AID923
Cc1ccc(C)c(-n2c(CNC(=O)c3ccco3)nnc2SCC(=O)N2CCc3ccccc32)c1,19.0%,i,1.3e-08,i,0.1%
COC(=O)c1ccc(C(NC(=O)OCc2ccccc2)/C(C)=C/[C@@H](C)C(=O)N(C)Cc2cccnc2)cc1 (some centres not stated),?,.,.,.,-2.1%
CCn1c(=O)c2c(nc3n2CC(C)CN3CCc2ccccc2)n(C)c1=O (configuration not stated),-1.1%,i,3.8e-09,i,0.0%
COc1cccc(NC(=O)CSc2nncn2-c2ccccn2)c1,-3.7%,i,1.44e-08,i,2.1%
COc1ccc(N(CC(=O)Nc2cc(OC)ccc2OC)S(C)(=O)=O)cc1,4.7%[11.4 µM],.,.,.,-4.1%
CCn1cc(C(=O)N2CCOCC2)c(=O)c2cc(S(=O)(=O)N(C)C)ccc21,-1.6%,.,.,.,-1.3%
O=C(CSc1nc(-c2ccco2)cc(C(F)(F)F)n1)Nc1ccc2c(c1)CCC2,?,i,2.16e-08,i,-1.2%
COc1cc(OC)cc(C(=O)NCc2nc(-c3ccccc3)no2)c1,25.3%,i,1.91e-08,i,0.5%
CSc1nc(C)cc(-n2cc(F)c(=O)[nH]c2=O)n1,-8.1%,.,.,.,0.4%
CN(C(=O)c1cnccn1)c1nnc(-c2cnccn2)s1,-2.4%,i,1e-09,i,2.3%
CS(=O)(=O)Nc1cccc(-c2ccc3ncnc(N4CCOCC4)c3c2)c1,16.1%,i,2.37e-08,i,1.1%
COc1ccc(N2CCN(c3oc(COc4ccccc4)nc3C#N)CC2)cc1,?,i,2.1e-09,i,1.6%
Nc1nsc2ccccc12,22.0%,i,2.54e-08,i,0.6%
COc1ccc2c(=O)c(-c3nc(C)cs3)coc2c1,.,i,2.42e-08,i,.
COc1cccc(-c2nc(NCCNC(C)=O)c3ccccc3n2)c1,?,i,1e-09,i,0.2%
COc1ccc(C)cc1-n1c(SCC(=O)Nc2cc(C)on2)nc2sc(C)c(C)c2c1=O,5.4%,i,5.8e-09,i,0.1%
COC(=O)C1CCN(C(=O)c2cc(OC)c(OC)c(OC)c2)CC1,17.4%,i,5.2e-09,i,0.4%
Cc1sc2nc(CN3CCCC3)nc(N3CCN(S(=O)(=O)c4cccs4)CC3)c2c1C,-7.6%,i,1e-09,i,0.3%
CCOC(=O)C1=C(N)Oc2cc(C)n(C)c(=O)c2C1c1ccncc1 (configuration not stated),.,i,2.3e-09,i,-1.7%
CC(=O)CCS(=O)(=O)c1ccc(C)c(C)c1,-7.0%,.,.,.,3.9%
Cc1cc(=O)[nH]c2c1c(C)nn2-c1ccccc1,-10.6%,i,1.22e-08,i,-3.2%
Cn1c(=O)cc(-c2ccccc2)c2ccccc21,29.1%,i,4.48e-08,i,-1.1%
CCOC(=O)C(C)(C)Oc1ccc(Cl)cc1,.,i,3.02e-08,i,0.0%
CCCCNc1nc(SC)nc2nc[nH]c12,-10.0%[11.4 µM],i,1e-09,i,5.5%[11.5 µM]
Cc1cc(C)nc(SCc2nc3ccccc3n2C)n1,4.8%,i,5.9e-09,i,-0.3%
NCCSCCC(=O)O,8.4%[11.4 µM],i,1.93e-08,i,1.9%[11.5 µM]
CSC1=C(C#N)C(c2ccc(Cl)cc2)C2=C(CC(C)(C)CC2=O)N1 (configuration not stated),-3.2%[11.4 µM],.,.,.,13.2%
Cc1ccc(S(=O)(=O)c2c(N)n(CCN3CCOCC3)c3nc4ccccc4nc23)cc1C,-0.5%,i,3.66e-08,i,3.4%
CCCC(c1nnnn1CCC(C)C)N1CCC(C(N)=O)CC1 (configuration not stated),-1.5%,i,1.25e-08,i,0.1%
CCC(=O)N1CCc2cc(S(=O)(=O)NCCCOC)ccc21,8.1%,i,1e-09,i,-1.7%
COc1ccc(-c2cn3c(C)c(C(=O)Nc4cccc(C)n4)sc3n2)cc1,18.4%,i,1.59e-08,i,5.4%
O=C(O)CCCCCn1c(SCC(=O)N2CCCC2)nc2ccsc2c1=O,-7.6%,i,3.46e-08,i,-1.0%
COc1ccc(C2=NOC(C(=O)Nc3c(C)n(C)n(-c4ccccc4)c3=O)C2)cc1OC (configuration not stated),-3.4%,.,.,.,1.2%
CC(=O)Nc1ccc(N/C=C/C(=O)c2ccco2)cc1,-10.4%,i,3.68e-08,i,4.9%
CC1(CCc2ccccc2)NC(=O)N(Cc2nnc(-c3ccccc3Br)o2)C1=O (configuration not stated),.,i,2.7e-09,i,-0.2%
Cn1c(=O)c2c(nc(CN3CCN(C(=O)c4ccco4)CC3)n2CCCc2ccccc2)n(C)c1=O,-6.6%,.,.,.,4.3%
Cc1cccc(NCc2nc(SCC(N)=O)n[nH]2)c1,-2.1%,i,1e-09,i,0.0%
O=C1CCc2cc(S(=O)(=O)N3CCC(C(=O)NCCC4=CCCCC4)CC3)ccc2N1,?,.,.,.,0.2%
CC(=O)N1CCC2(CC1)C(C#N)=C(N)Oc1n[nH]c(C)c12,-3.0%,i,1e-09,i,1.4%
CN1CCN(CC#CC(C)(O)C2CC3C=CC2C3)CC1 (configuration not stated),-5.1%[11.4 µM],i,1.63e-08,i,-0.6%

# Three compounds from above, arranged by their value in AID923, low to high:
Compound	AID923
Cn1c(=O)cc(-c2ccccc2)c2ccccc21	-1.1%
O=C(O)CCCCCn1c(SCC(=O)N2CCCC2)nc2ccsc2c1=O	-1.0%
CC1(CCc2ccccc2)NC(=O)N(Cc2nnc(-c3ccccc3Br)o2)C1=O (configuration not stated)	-0.2%

# (listing goes on)
SMILES,TSHR ag,Resorufin autofl,A647 fluor,A488 autofl,AID923
CCOC(=O)c1cccc(NC(=O)CSc2nnc(CNc3ccc(C)cc3)n2CC)c1,?,i,3.21e-08,i,-0.2%
O=C(CCCN1C(=O)c2ccccc2C1=O)NCCC1=CCCCC1,7.6%,i,5.95e-08,i,0.4%
COCc1nc2ccccc2n1CCOc1ccccc1OC,3.2%,i,4.4e-09,i,1.3%
COc1cc(C(=O)NCCC(=O)NCCCN2CCCCC2)cc(OC)c1OC,-1.8%,i,7.9e-09,i,-0.5%
CN(c1ccccc1C(=O)O)S(=O)(=O)c1ccc2c3c(cccc13)C(=O)N2,14.9%,i,1.66e-08,i,5.9%
O=C(NCCCN1CCC(Cc2ccccc2)CC1)C1CCN(S(=O)(=O)N2CCOCC2)CC1,0.4%[11.4 µM],i,2.8e-09,i,0.5%
O=c1c(CCc2ccccc2)nc2cnc(Oc3cccc(Cl)c3)nc2n1C[C@H]1CCCO1,20.7%,i,1e-09,i,3.1%
O=c1c2cnn(-c3ccccc3)c2ncn1Cc1ccccn1,23.6%[11.4 µM],i,1.97e-08,i,-0.3%
CCOC(=O)Cc1csc(NC(=O)C2CCCCC2C(=O)O)n1 (configuration not stated),-0.2%,i,6.9e-09,i,-0.5%
CN(C)c1ccc(-c2nn3c(C4CCCCC4)nnc3s2)cc1,.,i,2.39e-08,i,1.6%
CCOc1ccc(C(=O)NCCC(=O)NCCCC(=O)O)cc1,3.0%,.,.,.,0.5%
COc1cccc(-c2nc(NCCN3CCOCC3)c3ccccc3n2)c1O,.,i,1e-09,i,.
Cc1cc(C)c2nc(N3CCN(C)CC3)c(C#N)cc2c1,?,i,1e-09,i,8.3%
COc1ccc(-n2c(=O)c(-c3ccccc3)nc3cnc(N4CCN(C)CC4)nc32)cc1,-5.6%,i,2.53e-08,i,20.5%
Cc1[nH]c2ccccc2c1SCCNC(=O)c1ccc(Br)o1,1.0%,i,1e-09,i,0.1%
CN(Cc1ccccc1)S(=O)(=O)c1ccc(NC(=O)C2CCCO2)cc1 (configuration not stated),17.0%,.,.,.,-1.5%
COc1cc2nc(N(C)CCCNC(=O)[C@@H]3CCCO3)nc(N)c2cc1OC,6.7%[25.6 µM],i,3e-09,i,-1.5%[25.7 µM]
CCOC(=O)N1CCN(S(=O)(=O)c2cccs2)CC1,0.7%,i,1.75e-08,i,-1.3%
COc1ccc(S(=O)(=O)N2CCCC(C(=O)Nc3ccc(OC)c(OC)c3)C2)cc1 (configuration not stated),2.0%,i,2.4e-09,i,3.3%
COCC(=O)N(Cc1nc2ccccc2c(=O)[nH]1)Cc1cccs1,?,i,1.9e-09,i,1.5%
CC(=O)Nc1ccc(NC(=O)c2c(C)nc3ccccn23)cc1,-2.8%,i,4.57e-08,i,-1.2%
O=C1C=C(O)CC(c2ccc(Cl)c(Cl)c2)C1 (configuration not stated),.,i,3.34e-08,i,.
O=C(OCn1nnc2ccccc2c1=O)C1CCN(S(=O)(=O)c2cccs2)CC1,-5.0%,i,1e-09,i,0.2%
CCN(CC)c1ccc(NC(=O)c2[nH]c(C)c(C(C)=O)c2C)c(C)c1,-6.2%,i,1e-09,i,0.9%
N#Cc1cccc(NC(=O)N2CCCC3(CCN(C(=O)c4csnn4)CC3)C2)c1,?,i,8.8e-09,i,4.6%
CCOc1ccc(-n2c(SCc3ccc(C(=O)OC)o3)nc3c(c2=O)SCC3)cc1,.,i,1e-09,i,0.2%
CC(=O)c1ccc(NC(=O)CCC(=O)OCC(F)(F)C(F)F)cc1,0.4%,.,.,.,-0.2%
Cc1ccnc(NS(=O)(=O)c2ccc(NS(=O)(=O)c3cccs3)cc2)n1,2.2%,i,2.1e-09,i,-1.5%

# Compounds shown so far that contain an aryl thioether with sulfur outside any ring, in the order listed:
SMILES,TSHR ag,Resorufin autofl,A647 fluor,A488 autofl,AID923
Cc1ccc(C)c(-n2c(CNC(=O)c3ccco3)nnc2SCC(=O)N2CCc3ccccc32)c1,19.0%,i,1.3e-08,i,0.1%
COc1cccc(NC(=O)CSc2nncn2-c2ccccn2)c1,-3.7%,i,1.44e-08,i,2.1%
O=C(CSc1nc(-c2ccco2)cc(C(F)(F)F)n1)Nc1ccc2c(c1)CCC2,?,i,2.16e-08,i,-1.2%
CSc1nc(C)cc(-n2cc(F)c(=O)[nH]c2=O)n1,-8.1%,.,.,.,0.4%
COc1ccc(C)cc1-n1c(SCC(=O)Nc2cc(C)on2)nc2sc(C)c(C)c2c1=O,5.4%,i,5.8e-09,i,0.1%
CCCCNc1nc(SC)nc2nc[nH]c12,-10.0%[11.4 µM],i,1e-09,i,5.5%[11.5 µM]
Cc1cc(C)nc(SCc2nc3ccccc3n2C)n1,4.8%,i,5.9e-09,i,-0.3%
O=C(O)CCCCCn1c(SCC(=O)N2CCCC2)nc2ccsc2c1=O,-7.6%,i,3.46e-08,i,-1.0%
Cc1cccc(NCc2nc(SCC(N)=O)n[nH]2)c1,-2.1%,i,1e-09,i,0.0%
CCOC(=O)c1cccc(NC(=O)CSc2nnc(CNc3ccc(C)cc3)n2CC)c1,?,i,3.21e-08,i,-0.2%
Cc1[nH]c2ccccc2c1SCCNC(=O)c1ccc(Br)o1,1.0%,i,1e-09,i,0.1%
CCOc1ccc(-n2c(SCc3ccc(C(=O)OC)o3)nc3c(c2=O)SCC3)cc1,.,i,1e-09,i,0.2%

# High-throughput results deposited in PubChem BioAssay by National Center for Advancing Translational Sciences (NCATS).

# Some of the compounds tested (hit frequency here may not be typical).
